Marburg entry inh = qHTS for inhibitors of binding or entry into cells for Marburg Virus. Potency, µM (top dose mostly 37.8 µM), for inactives: top-dose activity change, negative = inhibition, actives largely listed as inhibitors. Marburg virus pseudotyped entry inhibition, cell reporter; control for the full effect not named in the record; about a third of the inactives were read at about 46 µM. actives 1.8% (n = 300,000). AID 540276, 2011; active = well fitted inhibition curve with a large enough effect; inconclusive = small, poorly fitted or top-dose-only effect, or effect the other way; inactive = flat fitted curve, though single readings scatter; tested in HEK293 cells; about a fifth of its hits are not listed in these tables; note: % is set by controls: 0 for no effect and ±100 for the full control effect; luciferase read-out
Cruzain inh Det = qHTS Assay for Promiscuous and Specific Inhibitors of Cruzain (with detergent). Cruzipain (Trypanosoma cruzi), P25779. purified cruzain, Z-FR-AMC fluorescence, 0.01% Triton. Potency, µM, without a hit: max response, negative = inhibition, most hits filed as inhibitors. actives 0.43% (n = 200,000);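 note: plate controls were neutral wells for no effect and buffer without enzyme for full effect; nearly all actives have a fitted effect of over 40% in size; top concentration of the series not given in the record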
Target sequence (P25779 123-467 limits assumed): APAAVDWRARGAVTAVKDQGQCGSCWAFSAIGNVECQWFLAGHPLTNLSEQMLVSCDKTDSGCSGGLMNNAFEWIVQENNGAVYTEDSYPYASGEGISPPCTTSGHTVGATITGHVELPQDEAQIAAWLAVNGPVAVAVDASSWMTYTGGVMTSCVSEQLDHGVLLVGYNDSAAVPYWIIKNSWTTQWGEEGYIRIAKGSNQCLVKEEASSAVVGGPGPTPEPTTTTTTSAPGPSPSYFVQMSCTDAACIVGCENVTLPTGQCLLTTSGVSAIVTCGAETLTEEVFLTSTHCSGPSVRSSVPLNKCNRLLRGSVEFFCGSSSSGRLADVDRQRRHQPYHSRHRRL
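Cruzain (1.5 nM) preincubated 15 min at RT with compound in 100 mM sodium acetate pH 5.5, 5 mM DTT, 0.01% Triton X-100. Reaction started with 2 uM Z-FR-AMC; AMC fluorescence (ex 360/em 450 nm) change over 60 s gave rate.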
2A StopGo = High Throughput Screening for Foot and Mouth Disease Virus Antivirals. AID 1159524, 2015. human cells with a luciferase reporter of 2A StopGo recoding; control for the full effect not named in the record. Potency, µM (doses to about 57.9 µM), for the others: at the top dose signal change, negative = less light. actives 1.2% (n = 410,000); active = well fitted falling curve with a large enough effect; inconclusive = small, poorly fitted or top-dose-only effect; inactive = no such curve, though single readings can be large or run the other way; tested in HEK293T cells; note: % is set by controls: 0 for no effect and ±100 for the full control effect; nearly all actives have a fitted effect of over 45% in size; luciferase light after 4 h
RE007 growth inh = qHTS Assay for Inhibitors of the HIV-1 protein Vpr; S. pombe RE007 Vpr strain, BacTiter-Glo ATP luminescence, 24 h; control for the full effect not named in the record; Potency, µM (titrated, usually from 92.2 µM), for inactives: at the highest dose activity change, negative = less growth; actives 0.21% (n = 360,000); active = well fitted falling curve with a large enough effect; inconclusive = small, poorly fitted or top-dose-only effect; inactive = no such curve, though single readings can be large or run the other way;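 note: % is set by controls: 0 for no effect and ±100 for the full control effect; nearly all actives have a fitted effect of over 50% in size; the assay follows cell death caused by Vpr and the record does not say whether a fall means rescue or toxicity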
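Fission yeast RE007 carrying one integrated HIV-1 vpr copy, seeded at OD 0.01 in PMG+AL medium with 23 nL pinned compound. Grown 24 h at 30 degrees; viability read by BacTiter-Glo luminescence after 5 min.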
SARS PLpro yeast = qHTS of Yeast-based Assay for SARS-CoV PLP | S. cerevisiae expressing SARS-CoV PLpro, growth rescue; control for the full effect not named in the record | Potency, µM (top dose mostly 32.9 µM), without a hit: at the highest dose activity, positive = growth rescue | actives 0.19% (n = 330,000) | AID 485353, 2010; active means well fitted rising curve with a large enough effect; inconclusive means small, poorly fitted or top-dose-only effect; inactive means no such curve, though single readings can be large or run the other way; note: 0% is about no effect; nearly all actives have a fitted effect of over 55% in size; growth read by luminescence after 48 h
Cruzain noTriton = qHTS Assay for Promiscuous and Specific Inhibitors of Cruzain (without detergent) | Cruzipain (Trypanosoma cruzi), P25779 | purified cruzain, Z-FR-AMC fluorescence, no detergent | Potency, µM, inactives show max response, negative = inhibition, most hits filed as inhibitors | actives 2.3% (n = 200,000);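 note: plate controls were enzyme without inhibitor for no effect and buffer without enzyme for full effect; nearly all actives have a fitted effect of over 40% in size; top concentration of the series not given in the record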
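Purified cruzain at 1.5 nM, pre-incubated 15 min with compound at room temperature in 100 mM sodium acetate pH 5.5, 5 mM DTT, 0.00005% Triton X-100. Reaction started with 2 uM Z-FR-AMC; AMC fluorescence increase over 60 s gives rate.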
LASV entry inh = qHTS for Inhibitors of binding or entry into cells for Lassa Virus; Lassa virus pseudotype entry inhibition, cell reporter; control for the full effect not named in the record; Potency, µM (series often up to 37.9 µM), inactives show at the top dose activity change, negative = inhibition, usual class: inhibitors; AID 540256, 2011; actives 1.2% (n = 300,000); active means well fitted inhibition curve with a large enough effect; inconclusive means small, poorly fitted or top-dose-only effect, or effect the other way; inactive means flat fitted curve, though single readings scatter; tested in HEK293 cells; note: % is set by controls: 0 for no effect and ±100 for the full control effect; nearly all actives have a fitted effect of over 50% in size; luciferase read-out
NS1 inh = qHTS Assay for Inhibitors of Influenza NS1 Protein Function | S. cerevisiae slowed by influenza A NS1, growth recovery by OD600 | Potency, µM (highest dose often 46.1 µM), for the others: at the highest dose activity, positive = more growth | actives 0.4% (n = 270,000); active means well fitted rising curve with a large enough effect; inconclusive means small, poorly fitted or top-dose-only effect; inactive means no such curve, though single readings can be large or run the other way; note: nearly all actives have a fitted effect of over 50% in size
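S. cerevisiae expressing influenza A NS1, grown in glucose, washed, then diluted 1:100 into pH 6.0 -URA galactose medium with 23 nl compound. Growth recovery read as OD600; NS1-free strain serves as control.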
* hit, by the source's call; ? = inconclusive; / = not tested or not shown; & = joins results of further samples; [ ] = remark or other dose. Unless noted, calls come from the whole dose curve; as a rule, active = well fitted curve in the direction sought with a large enough effect; inconclusive = small, poorly fitted or top-dose-only effect, or another doubt; inactive = no such curve, though single readings can be large; an effect the other way counts as inactive or inconclusive. Potency is the fitted concentration of half-maximal effect.

mol	Marburg entry inh	Cruzain inh Det	2A StopGo	RE007 growth inh	SARS PLpro yeast	Cruzain noTriton	LASV entry inh	NS1 inh
Cc1ccc(N2C(=O)N(CC(=O)Nc3cccc([N+](=O)[O-])c3C)C(=O)C2C)cc1 (stereo not given)	7%[46.1 µM]	/	-10%	6%	/	/	1%	/
O=C(Nc1c(C(=O)NCc2ccco2)cnn1-c1ccccc1)c1cccc(F)c1	-6%	3.5%	11%	22%	3%	3%	1%	-3%
CC(C)N(CCO)C(=O)C(c1ccccc1)c1ccccc1	15%	2.2%	1%	17%	4%	14%	18%	?
CNc1nc2ccccc2n(C)c1=O	20%[46.1 µM]	/	-2%	3%	0%	/	-3%	-2%
FC(F)(F)c1ccc(Nc2nnnc3ccccc23)cc1	-1%[46.1 µM]	/	20%	7%	4%	/	2%[46.1 µM]	/
CCOC(=O)C1CCN(C(=O)CNC(=O)c2nn(-c3ccc(OC)c(Cl)c3)c(=O)c3ccccc23)CC1	?	/	5%	-7%	-2%	/	?	17%
Cc1ccc(C)c(NC(=O)Cn2cc(S(=O)(=O)c3ccc(F)cc3)c(=O)c3cc(F)ccc32)c1	-15%[46.1 µM]	0.3%	-4%	/	/	-5%	6%[46.1 µM]	/
Cc1c(O)ccc(-c2n[nH]c(C(=O)O)c2-c2nc3ccccc3s2)c1O	6%[46.1 µM]	/	13%	1%	-1%	/	0%	14%
Cc1ccc(-c2nn(C(C)(C)C)c3ncnc(N)c23)cc1	?	-1.8%	?	-13%	-27%	11%	?	-108%
COc1ccccc1-c1sc2ccccc2c1-c1ccc2c(c1)OCO2	/	/	-11%	-15%	0%	/	/	3%

A few values from the results shown:
Value of `Cc1ccc(C)c(NC(=O)Cn2cc(S(=O)(=O)c3ccc(F)cc3)c(=O)c3cc(F)ccc32)c1` under 2A StopGo: -4%
Value of `COc1ccccc1-c1sc2ccccc2c1-c1ccc2c(c1)OCO2` under RE007 growth inh: -15%
Value of `O=C(Nc1c(C(=O)NCc2ccco2)cnn1-c1ccccc1)c1cccc(F)c1` under Cruzain inh Det: 3.5%

New compounds follow.
mol	Marburg entry inh	Cruzain inh Det	2A StopGo	RE007 growth inh	SARS PLpro yeast	Cruzain noTriton	LASV entry inh	NS1 inh
O=C(NC(=S)Nc1nc2ccccc2s1)c1cccs1	?	-8.9%	10%	6%	-3%	-26%	?	-6%
O=C(c1ccc(NS(=O)(=O)c2cccc3cccnc23)cc1)N1CCOCC1	-43%	/	0%	15%	/	/	13%	14%
COc1ccc(-n2c(Cc3cccn3C)nnc2SCC(=O)NC2CCCC2)cc1	/	-1.8%	-10%	13%	-5%	-2%	/	19%
COc1cccc(CN2CCN(C(=O)c3ccc(-c4ccccc4)cc3)CC2)c1OC	?	/	-26%	-1%	-1%	/	-22%	-9%
Cc1nc(-c2cccc(NC(=O)Nc3ccccc3C(F)(F)F)c2)no1	/	0.8%	-21%	/	/	0%	-22%[46.1 µM]	/
CCn1c(SCC(=O)Nc2ccc(NC(=O)c3ccco3)cc2)nnc1-c1cccs1	5%	/	10%	-3%	/	/	?	/
COc1ccc(CNC(=O)CN2C(=O)COc3ccc(S(=O)(=O)N4CCCCCC4)cc32)cc1	/	-1.2%	-7%	/	/	-2%	-13%[46.1 µM]	/
OC(CN1CCN(Cc2ccccc2)CC1)c1ccc(F)cc1 (stereo not given)	3%	2.5%	0%	2%	-4%	-4%	?	5%
O=C(CSc1nc(=O)n2ccccc2n1)NCc1ccc2c(c1)OCO2	2%[46.1 µM]	/	3%	-13%	4%	/	23%	/
CCOC(=O)c1ccc(NC(=O)C(CC)CC)cc1	16%	0.2%	67%[activator]	-7%	0%	-1%	23%	-13%
CCCC1(C(=O)OC)NC(c2ccc(OC)cc2OC)C2C(=O)N(c3cccc(C(C)=O)c3)C(=O)C21 (stereo not given)	-14%[46.1 µM]	/	-8%	-5%	3%	/	-20%[46.1 µM]	-5%
O=C(NCc1ccco1)C1CCN(c2nc3ccccc3n2Cc2ccccc2F)CC1	3%	-4.8%	-28%	14%	8%	15%	/	-65%
CCOc1ccccc1NCc1nnc(-c2ccccc2)o1	9%	/	13%	19%	15%	/	?	-18%
COC(=O)CN1C(=O)COc2ccc(Cl)cc21	3%	0.2%	7%	7%	9%	7%	1%	?
CCOC(=O)C1=NNC(C(=O)c2ccccc2)C1c1ccc(C)cc1 (stereo not given)	/	/	13%	-7%	0%	/	/	7%
COc1c2ccoc2nc2c(OC)cccc12	7%&1%	-0.9%	/	6%	-5%	-3%	17%	-37%
CCn1c2ccc(C)cc2c2nc3cc(C(=O)O)ccc3nc21	?	-10%	25%	-1%	-101%	14%	9%	-27%
Cc1cc(C)c2nc(NC(=O)C3CCCO3)sc2c1 (stereo not given)	?	1.7%	43%[activator]	-11%	5%	0%	?	-15%
Cc1ccc([N+](=O)[O-])c(OCCN2CCNCC2)c1	/	1.9%	0%	0%	-4%	-11%	/	-2%
Cc1cc(C)cc(-n2c(C)nc3cc(C(=O)NCc4ccc(F)cc4)ccc32)c1	/	-0.9%	-20%	/	/	-3%	6%[46.1 µM]	/
CCOC(=O)c1ccc(NC(=O)N2C[C@@H]3C[C@@H](C2)c2cccc(=O)n2C3)cc1	/	/	-17%	-10%	3%	/	/	-10%
Cc1nn(C)cc1C(=O)NNC(=S)Nc1ccc(Cl)cc1	7%	-0.4%	21%	3%	-2%	0%	-10%	5%
CCn1cc(C(=O)N2CCCC2)c(=O)c2cc(S(=O)(=O)N3CCC(C)CC3)ccc21	/	/	-11%	-12%	-3%	/	/	-8%
Cn1c(SCc2nc(-c3ccccc3)no2)nnc1-c1ccco1	15%	-0.9%	-1%	-4%	-3%	-2%	12%	-61%
Cc1ccccc1Nc1nc(-c2ccccc2)c(C(=O)Nc2cccnc2)s1	?	-10%	10%	-1%	-21%	2%	-30%	10%
COc1ccc(OC)c(/C=N/N(CCC#N)C2=NS(=O)(=O)c3ccccc32)c1	/	/	?	4%	1%	/	/	-2%
COc1ccc(OC)c(-c2cc(C(=O)Nc3cc(C)n(Cc4ccc(Cl)cc4)n3)no2)c1	?	-0.9%	22µM*	11%	-10%	?	4%	-39%
CN(C(=O)CSc1ccncc1)C1CCCN(Cc2ccccc2F)C1 (stereo not given)	/	/	-13%	-9%	-2%	/	/	-1%
COc1cccc(C(c2c(O)nc(SC)n(C)c2=O)c2c(O)nc(SC)n(C)c2=O)c1	-8%	-0.6%	-5%	-1%	8%	-1%	-8%	3%
CCC(C)NC(=O)CSc1nnc(-c2ccoc2C)n1CC1CCCO1 (stereo not given)	22%	-3.0%	-21%	0%	-9%	-1%	-14%	-4%
C/C(=N\NC(=O)c1cccc([N+](=O)[O-])c1)c1cccc(NC(=O)C2CC2)c1	2%[46.1 µM]	/	-2%	-5%	0%	/	-13%	0%
Cc1nn(C)c(C)c1NC(=O)Nc1cccc(C(F)(F)F)c1	-3%	13%	-2%	25%	6%	-3%	12%	8%
COC(=O)Cc1cc(=O)oc2cc(O)ccc12	28%[46.1 µM]	/	-13%	19%	-1%	/	-14%	6%
COc1cccc(OCC(=O)NCCS(=O)(=O)N2CCN(c3ccccc3F)CC2)c1	/	-2.7%	5%	/	/	13%	?	/
O=[N+]([O-])c1cc(C(F)(F)F)ccc1Sc1ccc2ccccc2n1	-29%	-8.1%	/	-3%	2%	-2%	-15%	-3%
COc1cccc(NC(=O)Nc2nnc(N3C(C)CCCC3C)s2)c1 (stereo not given)	9%[46.1 µM]	/	10%	-1%	-1%	/	18%[46.1 µM]	-4%
Cc1ccc2c(c1)NC(=O)C(CC(=O)NCc1cccnc1)O2 (stereo not given)	7%	0.1%	-16%	-3%	7%	-13%	/	6%
O=C(CNC(=O)c1ccc(F)cc1)OCc1cc(=O)n2nc(C3CC3)sc2n1	/	-3.2%	-5%	/	/	1%	13%[46.1 µM]	/
O=C(CSc1ncc(S(=O)(=O)c2ccc(Br)cc2)c(=O)[nH]1)Nc1ccc2c(c1)OCCO2	-3%[46.1 µM]	-24%	-5%	/	/	?	/	/
CCCS(=O)(=O)c1nc(C)cc(C)c1S(C)(=O)=O	-22%[46.1 µM]	/	4%	2%	-5%	/	15%[46.1 µM]	/
COc1cccc(CNC(=O)CN2C(=O)N(c3cccc(Cl)c3)S(=O)(=O)c3ccccc32)c1OC	/	1.3%	?	/	/	1%	-3%[46.1 µM]	/
O=C(Cn1c(=O)[nH]c2ccsc2c1=O)NC1CCCCC1	1%	3.6%	-8%	0%[3.69 µM]	-4%	1%	-10%	-1%
Cc1c(C(=O)NCc2ccccc2)c(-c2ccccc2)nn1-c1ccccc1	?	1.0%	0%	-16%	0%	-4%	-34%	16%
COc1cc(/C=N\NC(=O)c2ccc(=O)[nH]n2)cc(OC)c1OC	-12%	2.4%	40%[activator]	-3%	1%	-9%	2%	8%
O=C(CSc1cccc[n+]1[O-])N1CCc2ccccc21	/	/	8%	-6%	1%	/	/	2%
CN(CC(=O)Nc1ccc(F)cc1)C(=O)c1cc2c(s1)CCCCC2	-2%[46.1 µM]	/	-13%	-19%	1%	/	-30%	/

Limited to Cruzain inh Det, Cruzain noTriton and RE007 growth inh (2 entries from above):
| SMILES | Cruzain inh Det | Cruzain noTriton | RE007 growth inh |
| --- | --- | --- | --- |
| CN(CC(=O)Nc1ccc(F)cc1)C(=O)c1cc2c(s1)CCCCC2 | / | / | -19% |
| COc1cccc(CNC(=O)CN2C(=O)N(c3cccc(Cl)c3)S(=O)(=O)c3ccccc32)c1OC | 1.3% | 1% | / |

Source: PubChem (National Center for Advancing Translational Sciences (NCATS))

The order is random (roughly 4.8% active in at least one column).
